hNpr1 antagonist = human Npr1 receptor antagonism; P16066; 76,000 tested, 1.6% active; HEK293 hNpr1 GloSensor cGMP, ANP-stimulated luminescence; Potency, µM (top dose mostly 46.3 µM), for inactives: top-dose activity change, negative = inhibition, most hits filed as inhibitors; active = well fitted inhibition curve with a large enough effect; inconclusive = small, poorly fitted or top-dose-only effect; inactive = no such curve, though single readings can be large or run the other way;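 also: nearly all actives have a fitted effect of over 60% in size; nearly all hits also lower the signal before the agonist is added; a reference antagonist and vehicle were the controls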
Target sequence (P16066 whole entry, looked up): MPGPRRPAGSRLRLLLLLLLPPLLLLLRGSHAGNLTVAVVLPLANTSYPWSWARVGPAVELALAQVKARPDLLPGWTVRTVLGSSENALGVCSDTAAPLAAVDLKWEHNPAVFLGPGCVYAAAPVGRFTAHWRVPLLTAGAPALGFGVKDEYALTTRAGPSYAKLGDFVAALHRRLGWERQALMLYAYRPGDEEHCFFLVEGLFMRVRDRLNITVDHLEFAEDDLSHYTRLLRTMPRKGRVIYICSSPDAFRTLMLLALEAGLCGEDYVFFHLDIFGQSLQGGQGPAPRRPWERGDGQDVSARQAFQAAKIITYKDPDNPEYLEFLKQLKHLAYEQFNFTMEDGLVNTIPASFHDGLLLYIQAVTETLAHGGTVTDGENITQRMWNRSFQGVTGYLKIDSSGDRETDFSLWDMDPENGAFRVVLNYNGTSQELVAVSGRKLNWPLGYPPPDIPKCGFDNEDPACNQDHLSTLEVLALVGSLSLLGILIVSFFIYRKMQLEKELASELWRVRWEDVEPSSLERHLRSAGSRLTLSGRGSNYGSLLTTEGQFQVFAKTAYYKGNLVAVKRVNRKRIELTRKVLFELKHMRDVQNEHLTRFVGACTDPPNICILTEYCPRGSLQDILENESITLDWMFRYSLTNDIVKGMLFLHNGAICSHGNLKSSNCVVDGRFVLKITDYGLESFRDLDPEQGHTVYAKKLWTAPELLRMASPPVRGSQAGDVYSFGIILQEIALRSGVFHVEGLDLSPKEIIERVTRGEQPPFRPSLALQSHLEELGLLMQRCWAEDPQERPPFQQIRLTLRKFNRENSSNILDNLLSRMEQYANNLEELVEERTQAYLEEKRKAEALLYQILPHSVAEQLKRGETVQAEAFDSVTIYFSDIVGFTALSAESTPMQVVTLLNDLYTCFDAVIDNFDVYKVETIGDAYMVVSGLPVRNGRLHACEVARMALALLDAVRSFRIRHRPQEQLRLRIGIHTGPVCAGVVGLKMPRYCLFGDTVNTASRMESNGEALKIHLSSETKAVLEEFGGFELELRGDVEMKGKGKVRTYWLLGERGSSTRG
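Compound pre-incubated 30 min at room temperature on GloSensor-loaded HEK293 cells stably carrying hNpr1 and the pGS-40F cGMP biosensor. Stimulation uses hNppA at 0.1 nM final; luminescence is taken at baseline and 20 min post-agonist.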
Starred values were filed as active, the others as inactive; ? = inconclusive; & = joins results of further samples; [ ] = another dose, or the depositor's remark. % is scaled to controls: 0 for no effect and ±100 for the full control effect; potency is read from the fitted curve at half-maximal effect. This is a subset; the hit share may differ from the screen's.

compound | hNpr1 antagonist
CCc1nc2c(c(-c3ccc(Cl)cc3)n1)CN(C(=O)COC)CC2 | 11.9%
CN(C1CCc2nn(C)c(=O)n2CC1)S(=O)(=O)c1cccc2cccnc12 (stereo unspecified) | -0.7%
COC(=O)CN1C(=O)[C@@H]2C[C@@H](O)CN2C2(CN(CC3CC3)C2)C1=O | 2.8%[70.6 µM]
Cc1ccccc1CN1C[C@@H]2C(=O)N(CCc3ccccc3)C(=O)[C@@H]2C1 | 4.3%
COc1ccc(C(=O)N2CCC(Cc3noc(C4CCOCC4)n3)C2)cc1F (stereo unspecified) | -1.2%
NC1CCCCN(Cc2cnc(-c3ccco3)nc2)C1 (stereo unspecified) | 4.1%
O=C(CN1CCOc2ccccc2C1)N[C@H]1CCOC[C@H]1C1CCOCC1 | 1.8%
CN1CCN(C(=O)N[C@@H]2CCOC[C@H]2OCc2ccccc2)CC1 | 0.0%
COCCOC1CCN(S(=O)(=O)c2ccc(F)cc2)CC1 | 10.2%
CCN1CCN(CCNc2ncncc2-c2nc(-c3ccccc3)no2)CC1 | -18.1%
O=C(CN1C(=O)NC(c2ccc(Cl)cc2)C2=C1COC2=O)Nc1ccc(Br)cc1F (stereo unspecified) | ?
CC(C)(O)CCc1cccc(C(=O)N2CCC(N3CCOC3=O)CC2)c1 | 7.6%
CN1CCN(C(=O)c2cc(COc3ccc(F)cc3F)on2)CC1c1ccccc1 (stereo unspecified) | -20.5%
O=C1CCCCC(Cc2ccccc2)(C(=O)NCc2cccc(C(F)(F)F)c2)N1 (stereo unspecified) | -12.9%
CN(C)c1cccc(C(=O)N2CCC(OCCOc3ccc(F)cc3)CC2)c1 | 12.6µM*
Cc1ccc(C2Cn3nnc(-c4noc(-c5n[nH]c6c5CCCC6)n4)c3CO2)cc1 (stereo unspecified) | 1.3%
CCC(CC)NC(=O)C1Cn2cccc2C(=O)N1Cc1cccnc1 (stereo unspecified) | -1.2%
c1cn(-c2ccc3ncsc3c2)c(-c2cc3n(n2)CCCNC3)n1 | 0.6%
COc1ccc(N2CCN(C3CCCN(CC(=O)N(C)C(C)C)C3)CC2)cc1 (stereo unspecified) | 3.3%
O=C1c2c(nc(CNc3ccc(OC(F)(F)F)cc3)n2Cc2ccccc2)NCCN1CCN1CCOCC1 | -18.9%
CN1CCCC1c1nc(C2CN(C(=O)CCc3nc4ccccc4s3)C2)no1 (stereo unspecified) | -2.6%
NC(=O)CN1C(=O)[C@@H]2CN(C(=O)CC3(CC(=O)O)CCCC3)CCN2C1=O | 1.7%[70.6 µM]
O=C(NC1CCc2nn(CC3CC3)c(=O)n2CC1)c1ccc2cc[nH]c2c1 (stereo unspecified) | -0.3%
COCc1nc(C2CCCN(C(=O)Nc3ccccc3C)C2)no1 (stereo unspecified) | -3.5%

Reformatted: entries from further up.
CN(C1CCc2nn(C)c(=O)n2CC1)S(=O)(=O)c1cccc2cccnc12 (stereo unspecified)
  hNpr1 antagonist = -0.7%
COC(=O)CN1C(=O)[C@@H]2C[C@@H](O)CN2C2(CN(CC3CC3)C2)C1=O
  hNpr1 antagonist = 2.8%[70.6 µM]

Next part
compound | hNpr1 antagonist
CNC(=O)C(C)(C)N1CCC[C@H]1C(=O)N(C)Cc1ccccc1 | 5.2%[70.6 µM]
CN1C[C@H](NCc2cccnc2)CCC[C@@H](C(=O)NCc2cc(F)cc(F)c2)CC1=O | 5.9%[70.6 µM]
O=C(Cc1ccc(F)cc1)NC1CCN(c2ccc(F)cc2)C1=O (stereo unspecified) | 2.6%
CNC(=O)[C@@H]1CN(C(=O)c2ccc(C(C)(C)C)cc2)C[C@H]1CO | 4.7%
CCNC(=O)NCC(=O)N1CCCCCNC(=O)CC1c1ccccc1 (stereo unspecified) | -0.3%
CN(CCc1ccccn1)[C@H]1[C@@H]2OC[C@@H](O2)[C@@H](NCc2ccc(F)cc2)[C@@H]1O | -1.8%[70.6 µM]
COCCc1noc(-c2nnn3c2COC(c2ccc(F)cc2)C3)n1 (stereo unspecified) | -14.8%
CC(C)N1CCN(C(=O)C2CCCCC(=O)N2C)CC1 (stereo unspecified) | 0.5%
COc1ccc(-c2cc(CC3(NCCC(C)C)COC3)no2)cc1 | -16.8%[70.6 µM]
O=C(O)Cn1ccc2cc(OCCc3cccc(-c4ccc(F)cc4F)c3)cnc21 | 2.4%[70.6 µM]
CS(=O)(=O)c1ccc(CN2C[C@H](O)C[C@H]2c2nc(-c3ccc(F)cc3)no2)cc1 | -3.2%[70.6 µM]
O=C(O)CNC(=O)CNC(=O)Cn1nc2c(cc1=O)CCCC2 | -5.3%
Cc1ccc(C(=O)N2CCN(C(=O)N3CC4CC(C3)[C@H]3CCCC(=O)N3C4)CC2)s1 (stereo partly specified) | -2.2%
COCCN1C(=O)CS(=O)(=O)C12CCN(C(=O)c1ccc(OC)cc1OC)CC2 | 0.3%
N#Cc1cccc(C(=O)N2CCCN(S(=O)(=O)c3ccccc3)CCC(=O)NCC2)c1 | 1.4%
COCc1nc(C2CCCN(C(=O)c3ccnn3C)C2)no1 (stereo unspecified) | 0.0%

An excerpt of these results, with values ahead of the structure:
| hNpr1 antagonist | molecule |
| --- | --- |
| -2.2% | Cc1ccc(C(=O)N2CCN(C(=O)N3CC4CC(C3)[C@H]3CCCC(=O)N3C4)CC2)s1 (stereo partly specified) |
| 0.3% | COCCN1C(=O)CS(=O)(=O)C12CCN(C(=O)c1ccc(OC)cc1OC)CC2 |
| 1.4% | N#Cc1cccc(C(=O)N2CCCN(S(=O)(=O)c3ccccc3)CCC(=O)NCC2)c1 |

Following part
compound | hNpr1 antagonist
CN(c1ccccc1)c1cc(=O)c2ccnc(-c3cccnc3)c2o1 | 7.5%[70.6 µM]
CCc1cccc(NC(=O)N(C)CC2CCOC2)c1 (stereo unspecified) | 0.2%
Cc1nc(CCNC(=O)CC(C)C)no1 | 6.1%
O=C(Nc1cccc(F)c1)c1cc(-c2ccc[nH]2)n[nH]1 | ?
Cc1ccc(CN2CCn3c(nn(-c4ccc(C(F)(F)F)cc4)c3=O)C2)cc1 | 3.5%&10.1%
O=C1[C@@H]2C[C@@H](O)CN2C2(CN(Cc3c[nH]c4ccccc34)C2)C(=O)N1Cc1cccc(Cl)c1 | 3.2%
c1cncc(C(CNc2ncncn2)N2CCOCC2)c1 (stereo unspecified) | -1.0%
C=CCNC(=O)[C@@H]1Cc2cn(CC=C)c3cccc(c23)[C@H](CC(C)C)N1 | -1.9%[70.6 µM]

Copied from the results shown, 2 compounds:
compound | hNpr1 antagonist
CN(c1ccccc1)c1cc(=O)c2ccnc(-c3cccnc3)c2o1 | 7.5%[70.6 µM]
CCc1cccc(NC(=O)N(C)CC2CCOC2)c1 (stereo unspecified) | 0.2%

Next section
SMILES	hNpr1 antagonist
COc1cccc(CN2CCn3c(nnc3[C@@H]3C[C@@H](O)CN3C)C2)c1	7.4%
COCCNC(=O)[C@@H]1C[C@@H](O)CN1C1CCN(C(=O)CN2CCCCCC2)CC1	-0.6%
NC(=O)[C@H]1C[C@@H](O)[C@H](O)[C@H]2[C@@H]1SC(=Nc1ccccc1)N2Cc1ccccc1	3.2%[70.6 µM]
Cc1cccc(-c2ocnc2C(=O)N2CCC3(CCC(=O)N(CC4CC4)CC3)CC2)c1	-25.5%
C[C@H]1[C@@H]2[C@H]3OC(=O)[C@@H](C)[C@@H]3CC[C@@]2(C)CC[C@@H]1NC(=O)Nc1cccc(F)c1	-2.5%[70.6 µM]
OC(c1nc(Nc2ccc(N3CCOCC3)cc2)n[nH]1)C1CC1 (stereo unspecified)	-0.8%[70.6 µM]
O=C(c1cc(F)cc(F)c1)N1CCC(Cc2nc(-c3ccccc3)no2)CC1	7.08µM*
COc1ccc(-n2nc(C3CCN(C(=O)c4ccccc4)CC3)[nH]c2=O)cc1	-2.9%
COc1ccc(Cn2c(C3CCN(C(=O)c4ccccc4)CC3)n[nH]c2=O)cc1	4.6%
CCCc1nnc(NC(=O)C2CC(=O)N(c3n[nH]c4cc(Br)ccc34)C2)s1 (stereo unspecified)	0.5%
COc1nc2c(cc1CNC(=O)C1CCOC1)C(=O)N(CCc1ccccn1)C2 (stereo unspecified)	2.1%
CN1C[C@@H](NC(=O)c2ccc(-c3ccccc3)cc2)C[C@H]1c1nc(-c2ccncc2)no1	?
O=C1NCCCCCN(C(=O)COc2ccccc2)[C@@H]2C[C@@H](C(=O)N3CCc4ccccc4C3)C[C@H]12	-13.4%
Cc1cc2cccc(-c3nc(C4CCOC4)no3)c2o1 (stereo unspecified)	2.8%
COc1ccc(CCC(=O)N2CCC3(CC2)CC(OCC2CC2)CCO3)cc1 (stereo unspecified)	-20.1%
Cc1ccc(CCNC(=O)c2noc(-c3ccc(C)cc3)n2)cc1	2.2%
Cn1c(C(=O)N[C@@H]2COCC[C@H]2Oc2ccc(C#N)cc2)cc(=O)n(C)c1=O	6.3%
CCOc1ccccc1CN1CCCCCNC(=O)CC1c1ccccc1 (stereo unspecified)	3.5%
O=C(c1ccco1)N1CCN(Cc2ccc3c(c2)CCO3)CC(O)C1 (stereo unspecified)	-15.8%
O=C(COc1ccccc1)NC1CCN(c2cc(-c3ccccc3)[nH]n2)CC1	-30.2%
CCn1cnnc1CC1CCCN(C(=O)CCc2ccccc2)C1 (stereo unspecified)	-4.2%
NC(=O)[C@@H](Cc1ccccc1)NC(=O)C1=C[C@@H](NC(=O)c2cccnc2)[C@@H](O)[C@H](O)C1	1.0%[70.6 µM]
O=C(Nc1ccc([C@H]2OCC(=O)N(Cc3cccnc3)[C@@H]2CO)cc1)c1cc(F)cc(F)c1	-6.0%
COc1ccccc1-c1ccc(C(=O)N2CCCC[C@H](N(C)C)C2)cc1	4.0%
COCCOCC(=O)N1CCC2(CC1)C(OC)CN2c1cccc(F)c1 (stereo unspecified)	4.7%
Cc1nnc(-c2cc(-c3ccc([S+](C)(=O)[O-])cc3)ccn2)n1Cc1cccnc1	-16.6%[70.6 µM]
O=C(NCCCN1CCCC1=O)c1csc(N2CCN(c3ccccc3F)CC2)n1	-0.3%
CCn1ncc(N2CCCC(CC(=O)Nc3ccc(C)cc3C)C2)cc1=O (stereo unspecified)	-3.2%
COCCN1C(=O)[C@@H]2C[C@@H](CN2C(=O)CC(C)(C)C)Oc2ccccc21	8.2%[70.6 µM]
CC(=O)N(C1CC1)C1CCOC2(CCN(C(=O)Cc3c(C)noc3C)CC2)C1 (stereo unspecified)	-3.0%
O=C1N(Cc2ccccc2)CCOC12CCN([S+](=O)([O-])c1ccccc1)CC2	-10.4%[70.6 µM]
O=C(NC1CCCN(c2cc(N3CCCC3)ncn2)C1)c1ccccn1 (stereo unspecified)	-4.7%
COc1ccc(NC(=O)c2ccc3c(c2)N(C)C2CCCCCN2C3=O)cc1F (stereo unspecified)	-0.2%
O=C(NCc1cccnc1)C1CCN(C2CCN(Cc3ccc4c(c3)CCO4)CC2)CC1	-1.2%
COc1cc(OC)cc(C(=O)Nc2ccc(-c3nnc4n3CCCC4)cc2)c1	3.6%
CCS(=O)(=O)N(C1CC1)C1CCOC2(CCN(C(=O)c3ccccc3OC)CC2)C1 (stereo unspecified)	4.1%
CN(C)c1nc2c(c(=O)[nH]1)CCN(Cc1ccc(F)cc1Cl)CC2	-12.0%
CN(C)c1nc(-c2ccccc2)nc2c1CCN(C(=O)C1CC1)C2	1.1%
O=C([C@@H]1Cc2nc[nH]c2CN1Cc1ccc(C(F)(F)F)cc1)N1CCOCC1	3.0%[70.6 µM]
CCOc1ccccc1CN1CCn2c(nnc2[C@@H]2C[C@@H](O)CN2C)C1	-0.7%
O=C(c1ccc(F)cc1)N1CCOC[C@H](Oc2cnccn2)C1	6.7%[70.6 µM]
Cc1cnn(C(C)c2nc(-c3cccnn3)no2)c1 (stereo unspecified)	-0.3%
COCCN(C)C(=O)c1cn2cc(-c3ccccc3Cl)n(CC3CC3)c(=O)c2n1	1.2%
COc1cccc(CN2CCC23Cc2ccccc2NC3=O)c1 (stereo unspecified)	7.9%[70.6 µM]
COc1ccc(NC(=O)c2cc3n(n2)CC(c2ccc4c(c2)OCO4)OC3)cc1Cl (stereo unspecified)	?
COc1ccc2[nH]c(=O)c(CCC(=O)NCCCN3CCCC(C)C3)cc2c1 (stereo unspecified)	1.9%
Cc1ccc(C(=O)N[C@H]2CO[C@H]3[C@@H]2OC[C@@H]3Nc2nccc(-c3cccs3)n2)cc1	-5.2%[70.6 µM]
O=C(CC1=CCCCC1)N1C[C@@H](CO)[C@H](c2nc(C3CC3)no2)C1	0.3%
O=S(=O)(NC[C@H]1O[C@@H](CO)[C@@H](O)[C@H]1N1CCCC1)c1cccs1	7.6%[70.6 µM]
O=C(CCc1nnn2c1CN(C(=O)Nc1cccc(F)c1)CC2)NC1CC1	-9.8%

(more compounds)
SMILES	hNpr1 antagonist
O=C(NC1C[C@H]2CC[C@@H](C1)N2C(=O)C1CCC1)c1ccc(F)cc1 (stereo partly specified)	2.5%
O=C1Cc2c(-c3ccc4ccccc4c3)n[nH]c2CN1CCc1ccncc1	-20.2%[70.6 µM]
COCCN1CCCCCC(O)c2cc(C(=O)N(C)Cc3cccnc3)ccc21 (stereo unspecified)	3.9%
COC1CCC(C(=O)N2CCc3c(n(Cc4cccnc4)n(-c4ccccc4)c3=O)C2)CC1 (stereo unspecified)	0.5%
Cc1noc([C@@H]2C[C@H](NC(=O)c3ccc(C#N)cc3)CN2C)n1	0.8%[70.6 µM]
O=C1Nc2ccc(-c3ccccc3F)cc2C(=O)N2CCN(C(=O)c3ccccc3)C[C@H]12	-2.1%[70.6 µM]
COc1ccc2[nH]cc(CN3CCC4(CC3)CC(C(=O)N3CCOCC3)N(C)C4)c2c1 (stereo unspecified)	-0.8%
O=C(NCc1cccnc1)C1CCC(=O)N1C1CCN(C(=O)c2ccccc2F)CC1 (stereo unspecified)	-1.8%
CNC(=O)C1(N2CCC[C@H]2C(=O)NCc2ccccc2)CCCCC1	1.0%[70.6 µM]
